VACV mCherry inh – vaccinia inhibition (mCherry reporter); Vaccinia virus mCherry reporter infection, fluorescence; about a quarter of the inactives have no number; hit rate 0.63% among 310,000; Potency, µM (titrated, usually from 36.5 µM), inactives show at the top dose activity change, negative = inhibition, usual class: inhibitors; active = well fitted inhibition curve with a large enough effect; inconclusive = small, poorly fitted or top-dose-only effect; inactive = no such curve, though single readings can be large or run the other way; tested in A549 cells; also: nearly all actives have a fitted effect of over 35% in size; inactives centre near -10
Vaccinia Venus – inhibitors of vaccinia virus (Venus reporter). Potency, µM (doses to about 36.5 µM), inactives show at the highest dose activity change, negative = inhibition, hits mostly inhibitors. hit rate 0.46% among 330,000. Vaccinia virus Venus reporter expression, fluorescence. AID 720580; active means well fitted inhibition curve with a large enough effect; inconclusive means small, poorly fitted or top-dose-only effect; inactive means no such curve, though single readings can be large or run the other way; tested in A549 cells; also: nearly all actives have a fitted effect of over 30% in size; inactives centre near -10
* = called active by the depositor; i = inactive; ? = inconclusive; . = no result given; & = joins results of further samples; [ ] = remark or other dose. % is scaled to controls: 0 for no effect and ±100 for the full control effect; potency is read from the fitted curve at half-maximal effect.

structure	Vaccinia Venus	VACV mCherry inh
CC(C)Nc1nc(-c2ccccc2F)c2sc(-c3ccccc3)cc2n1	-2.2%	-4.7%
CCc1nonc1NC(=O)c1oc2ccc(C)cc2c1C	-1.9%[7.34 µM]	-8.8%[7.34 µM]
O=C(CNC(=O)C1CC1)Nc1ccc(F)c(F)c1F	-4.8%	-1.3%
NC(=O)CCC(C(=O)O)N1C(=O)c2ccc(O)cc2C1=O (configuration not stated)	-0.9%	i
CCN(C(=O)c1cc2c(=O)n3cccc(C)c3nc2s1)C1CCCCC1	-1.6%	-14.5%
CCN(CC)S(=O)(=O)c1ccc(N2CCCCC2)c(NC(=O)C2CSC3(C)CCC(=O)N23)c1 (configuration not stated)	-21.7%	-9.9%
CC/C(=N/NS(=O)(=O)c1ccc(Cl)cc1)c1ccc(O)cc1	4.9%	-6.7%
O=C1CC(c2cc([N+](=O)[O-])ccc2Cl)c2c(ccc3ccccc23)N1 (configuration not stated)	-16.3%	-5.8%
O=[N+]([O-])c1c(NCCCO)cc(N2CCN(Cc3ccc4c(c3)OCO4)CC2)c2nonc12	-23.7%	-5.6%
O=C1NC(=O)C(CC(=O)N(Cc2ccco2)C2(C(=O)NC3CCCC3)CCCCC2)N1 (configuration not stated)	-4.3%	-7.3%
O=C(CSc1nc(-c2ccccc2)nc2ccc(F)cc12)Nc1ccc(C(=O)O)cc1	-8.1%	i
O=C(Nc1ccc2nc(SCC(=O)N3CCCc4ccccc43)sc2c1)c1ccccc1F	?	?
CCOC(=O)CNc1ccc(C(=O)OCC)cc1[N+](=O)[O-]	-12.9%	-14.9%
CN(C)c1ccc(C=O)cc1	-2.7%	-15.7%
CC(=O)Nc1ccc(S(=O)(=O)NCCC(=O)NCC2COc3ccccc3O2)cc1 (configuration not stated)	-3.7%	i
COc1cccc(-n2cc(C(=O)NC(C)C)c3ccccc3c2=O)c1	-12.8%	-10.1%
COc1ccccc1NC(=O)c1ccc(-c2nc(COc3ccc(C)cc3)c(C)o2)cc1	-25.3%	-25.7%
COc1cccc(C=Nc2ccc3c(c2)OCCO3)c1O	0.7%	-14.1%
COc1ccc(NC(=S)N2CCN(CCN3C(=O)c4cccc5cccc(c45)C3=O)CC2)cc1	-6.0%	-3.5%
CCCCN(CC)CCCNC(=O)CN1C(=O)CSc2ccc(S(=O)(=O)N3CCOCC3)cc21	-0.4%	-6.3%
OC(c1ccccc1)c1ncc(-c2ccccc2F)[nH]1 (configuration not stated)	-10.1%	31.9%[activator]
O=C(NCc1ccccc1)C(=O)Nc1nc(C23CC4CC(CC(C4)C2)C3)cs1	-19.6%	i
O=C(/C=C/c1ccccc1)C1=C(O)C(=O)N(CCO)C1c1ccccc1[N+](=O)[O-] (configuration not stated)	-11.8%	-26.3%
COc1cc2c(C(=O)NCCCOC(C)C)cn(CC(C)C)c(=O)c2cc1OC	-11.6%	-18.0%
CCCCCCC1CC(CC(=O)Nc2ccc([N+](=O)[O-])cc2)C(=O)O1 (configuration not stated)	-27.2%	-28.3%
Cc1c(C(C)CCCO)oc(=O)c2c1Oc1c(C)c(C(C)C[C@H](C)O)oc(=O)c1C2 (some centres not stated)	-20.3%	i
CNc1c(NS(=O)(=O)c2ccc(CC(C)C)cc2)c(=O)oc2ccccc12	-5.8%	-13.3%
COc1ccc(OCCSc2nc3ccccc3n2CCC(=O)O)cc1	-11.4%	-11.0%
COc1ccc(NS(=O)(=O)c2ccc3c(c2)CCCN3C(C)=O)cc1	-16.6%	-21.4%
CC(C)(C)c1ccc(COc2ccsc2C(=O)O)cc1	-14.2%	i

21 of these compounds in a different format.
Every second line gives: Vaccinia Venus	VACV mCherry inh
O=C1CC(c2cc([N+](=O)[O-])ccc2Cl)c2c(ccc3ccccc23)N1 (configuration not stated)
→ -16.3%	-5.8%
O=[N+]([O-])c1c(NCCCO)cc(N2CCN(Cc3ccc4c(c3)OCO4)CC2)c2nonc12
→ -23.7%	-5.6%
O=C1NC(=O)C(CC(=O)N(Cc2ccco2)C2(C(=O)NC3CCCC3)CCCCC2)N1 (configuration not stated)
→ -4.3%	-7.3%
O=C(CSc1nc(-c2ccccc2)nc2ccc(F)cc12)Nc1ccc(C(=O)O)cc1
→ -8.1%	i
O=C(Nc1ccc2nc(SCC(=O)N3CCCc4ccccc43)sc2c1)c1ccccc1F
→ ?	?
CCOC(=O)CNc1ccc(C(=O)OCC)cc1[N+](=O)[O-]
→ -12.9%	-14.9%
CN(C)c1ccc(C=O)cc1
→ -2.7%	-15.7%
CC(=O)Nc1ccc(S(=O)(=O)NCCC(=O)NCC2COc3ccccc3O2)cc1 (configuration not stated)
→ -3.7%	i
COc1cccc(-n2cc(C(=O)NC(C)C)c3ccccc3c2=O)c1
→ -12.8%	-10.1%
COc1ccccc1NC(=O)c1ccc(-c2nc(COc3ccc(C)cc3)c(C)o2)cc1
→ -25.3%	-25.7%
COc1cccc(C=Nc2ccc3c(c2)OCCO3)c1O
→ 0.7%	-14.1%
COc1ccc(NC(=S)N2CCN(CCN3C(=O)c4cccc5cccc(c45)C3=O)CC2)cc1
→ -6.0%	-3.5%
CCCCN(CC)CCCNC(=O)CN1C(=O)CSc2ccc(S(=O)(=O)N3CCOCC3)cc21
→ -0.4%	-6.3%
OC(c1ccccc1)c1ncc(-c2ccccc2F)[nH]1 (configuration not stated)
→ -10.1%	31.9%[activator]
O=C(NCc1ccccc1)C(=O)Nc1nc(C23CC4CC(CC(C4)C2)C3)cs1
→ -19.6%	i
O=C(/C=C/c1ccccc1)C1=C(O)C(=O)N(CCO)C1c1ccccc1[N+](=O)[O-] (configuration not stated)
→ -11.8%	-26.3%
COc1cc2c(C(=O)NCCCOC(C)C)cn(CC(C)C)c(=O)c2cc1OC
→ -11.6%	-18.0%
CCCCCCC1CC(CC(=O)Nc2ccc([N+](=O)[O-])cc2)C(=O)O1 (configuration not stated)
→ -27.2%	-28.3%
Cc1c(C(C)CCCO)oc(=O)c2c1Oc1c(C)c(C(C)C[C@H](C)O)oc(=O)c1C2 (some centres not stated)
→ -20.3%	i
CNc1c(NS(=O)(=O)c2ccc(CC(C)C)cc2)c(=O)oc2ccccc12
→ -5.8%	-13.3%
COc1ccc(OCCSc2nc3ccccc3n2CCC(=O)O)cc1
→ -11.4%	-11.0%

More structures follow.
structure	Vaccinia Venus	VACV mCherry inh
O=C(COc1ccc(Cl)cc1)N(Cc1cccs1)C1CCS(=O)(=O)C1 (configuration not stated)	-10.2%	i
Cc1cc2cc(CNC(=S)Nc3ccc(OC(F)(F)F)cc3)ccc2n1C	-4.6%	-8.8%
O=C(C[n+]1ccccc1)N/N=C/c1cc(Br)ccc1O	-18.2%	-9.6%
Cc1nnsc1C(=O)N1CCCC(C(=O)c2ccc(C(F)(F)F)cc2)C1 (configuration not stated)	-11.3%	i
COc1ccc(Oc2c(C(F)(F)F)oc3c(CN4CCCC(C)C4)c(O)ccc3c2=O)cc1 (configuration not stated)	-9.7%	-0.4%
Cc1nnc(SC(C)C(=O)NC2CCCCC2C)n1N (configuration not stated)	0.2%	-9.1%
COc1ccc(-c2c(C)oc3cc(O)cc(O)c3c2=O)cc1OC	-14.0%	-6.3%
CCCN(CCC)C1Sc2ccc(C(=O)OC)cc2NC1=O (configuration not stated)	-7.7%	-14.4%
Cc1cc(NC(=O)c2ccccc2)nc(C)n1	-8.9%	i
CCN(Cc1ccccc1)c1ccc(/C=N/NS(=O)(=O)c2cccc([N+](=O)[O-])c2)cc1	-17.6%	i
CCOc1ccc(NC(=O)N2CCN(c3nc4ccccc4s3)CC2)cc1	-19.5%	.
CCN(C(=O)C(C)Cl)c1ccccc1 (configuration not stated)	-1.3%	7.2%
CC(CCc1ccccc1)NC(=O)Cc1ccc(Br)cc1 (configuration not stated)	-19.3%	-17.0%
Cc1cc(Nc2ccccc2Cl)nc(-c2ccccc2O)n1	-18.6%	-14.7%
COc1cc(/C=C/c2ccc3cccc(O)c3n2)cc(OC)c1OC	-21.8%	8.91µM*
C=CCNC(=O)c1cc(-c2ccc3c(c2)OCO3)on1	-12.7%	i
O=C(COC(=O)c1cc([N+](=O)[O-])ccc1N1CCOCC1)NCCc1ccccc1	-10.8%	i
Cc1ccc(C)c(NC(=O)COC(=O)COc2cccc3c2OC(C)(C)C3)c1	-7.0%	i
CCn1c(=O)c(C(=O)CN2CCN(S(=O)(=O)c3ccccc3)CC2)c(N)n(Cc2ccccc2)c1=O	-13.2%	-19.7%
Cc1cc(C(=O)Cn2nc(C(=O)O)c3ccccc3c2=O)c(C)n1CCc1ccc(F)cc1	-20.0%	-20.4%
O=C(CSc1nncn1-c1ccccc1)Nc1cc(F)ccc1F	-2.4%	i
Cc1cccc(C2CC(c3ccccc3)=NN2c2ccc(S(N)(=O)=O)cc2)c1 (configuration not stated)	-21.0%	-9.2%
CCCCOc1cccc(-c2nnc(N)s2)c1	?	.
O=C(CSc1nc(=O)n2ccccc2n1)Nc1ccc2c(c1)OCO2	-4.8%	-26.8%
CCOC(=O)[C@]12CCCC=C1N(Cc1ccc3c(c1)OCO3)C(=O)[C@H](CC(=O)NCC1CCCCC1)C2	-17.0%	8.5%
CC(C)=CCC[C@](C)(O)C1CC[C@]2(C)C1[C@H](O)CC1[C@@]3(C)CC[C@H](O[C@@H]4O[C@H](CO)[C@@H](O)[C@H](O)[C@H]4O[C@@H]4O[C@H](CO)[C@@H](O)[C@H](O)[C@H]4O)C(C)(C)C3CC[C@]12C (some centres not stated)	?	i
COc1ccc(CC(=O)NCC(c2cccs2)S(=O)(=O)c2ccc(C)cc2)cc1 (configuration not stated)	-10.3%	-19.4%
COc1cccc(N2C(=O)C3NN=C(C(=O)CN4C(=O)c5ccccc5C4=O)C3C2=O)c1 (configuration not stated)	-7.7%[7.34 µM]	i[7.34 µM]
O=S(=O)(NCCc1ccc(F)cc1)c1cccc2cccnc12	-10.0%	-13.5%
CN(C(=O)CSc1nc2ccc(NC(=O)c3ccccc3F)cc2s1)c1ccccc1	?	-6.5%
CC(C)n1c(CCC(=O)O)ccc1-c1ccccc1	-1.4%	14.2%
Cc1ccc(S(=O)(=O)NC(=O)NCCCN2CCOCC2)cc1	0.0%	1.7%
CCOC(=O)c1ccc(NC(=O)C2CCN(S(=O)(=O)c3c(C)nn(C)c3C)CC2)cc1	-14.3%	i
Cc1ccc(NC(=O)CSc2nc(N)c3c4c(sc3n2)CSC(C)(C)C4)cc1	?	-6.6%
CC(C)C(C(=O)Nc1ccccc1)N1C(=O)c2ccccc2C1=O (configuration not stated)	-0.7%	i
Cc1ccccc1OCc1nc(-c2ccc(-n3cccc3)cc2)no1	-22.2%	-2.4%
CCC(Sc1nc(C)cc(C)n1)C(=O)Nc1ccc(Cl)cn1 (configuration not stated)	-13.5%	.
COc1ccc2c(C)c(CCC(=O)NCCc3ccc(OC)c(OC)c3)c(=O)oc2c1	-4.7%	-4.4%
O=C(Cn1cnc2c(cnn2-c2ccc(F)cc2)c1=O)NCC1CCCO1 (configuration not stated)	-17.6%	.
O=C(Cc1ccccc1)Nc1cccc(-c2nnc(-c3ccco3)o2)c1	-24.4%	.
O=C(Nc1cccc(S(=O)(=O)N2CCCCCC2)c1)C1CCN(C(=O)c2ccc(F)cc2)CC1	?	-28.9%
CCCCN(C)C(=O)CNC(=O)c1nn(-c2ccc(OC)cc2OC)c(=O)c2ccccc12	-11.2%	-19.2%
Cc1ccc2c(C)c(C(=O)NCCN3CCOC3=O)oc2c1C	-8.4%	-3.7%
Cc1nc(NCCN)c(C#N)c2c1COC(C)(C)C2	0.0%	i
Cc1ccc(Nc2nc(N)nc(CN3CCCCCC3)n2)cc1	-11.1%	i
Cc1cc(C(=O)Nc2ccccc2Cl)n(-c2ccccc2)n1	-15.3%	i
CC(C)(C)NC(=O)COC(=O)c1nsc(Cl)c1Cl	-5.5%	-10.4%
COc1ccc(CN(Cc2nc3ccccc3c(=O)[nH]2)C(=O)C(C)(C)C)cc1	-15.2%	i
COc1ccc(C(=O)NCC(=O)OCC(=O)c2ccc3ccccc3c2)cc1	-14.4%	-16.5%
COc1ccc(NC(=O)c2ccc(-c3csc(C)n3)cc2)cc1	4.5%	i

Continued.
structure	Vaccinia Venus	VACV mCherry inh
O=C(CCN1C(=O)C2CC=CCC2C1=O)Nc1ccc(S(=O)(=O)N2CCCCC2)cc1 (configuration not stated)	-12.9%	-13.3%
Cc1ccc(C)c2nc(SCC(=O)NCc3cccs3)c(C#N)cc12	-4.4%	-3.3%
COc1ccc(C(CNC(=O)c2ccc(-c3cccc(C(F)(F)F)c3)o2)N2CCOCC2)cc1 (configuration not stated)	?	-9.8%
C/C(=N\Nc1nc2ccccc2[nH]1)c1ccc([N+](=O)[O-])cc1	-7.7%	i
[N-]=[N+]=CC(=O)OC[C@H](N)C(=O)O	-5.1%&-6.2%	-17.1%&-8.6%
CCCCn1c(=N)n(CCOc2ccccc2OC)c2ccccc21	-20.4%[7.34 µM]	-18.6%[7.34 µM]
O=C(NC1(C(=O)O)CCCC1)c1ccccc1	-1.6%	i
O=C(COC(=O)c1ccc2c(c1)OCO2)Nc1ccccc1OC(F)F	-2.2%	-15.6%

Source: PubChem BioAssay (National Center for Advancing Translational Sciences (NCATS))
